Vaccinia Venus: vaccinia inhibition (Venus reporter) | 0.46% of 330,000 active | Vaccinia virus Venus reporter expression, fluorescence | Potency, µM (doses to about 36.5 µM), for the others: at the highest dose activity change, negative = inhibition, actives largely listed as inhibitors; active means well fitted inhibition curve with a large enough effect; inconclusive means small, poorly fitted or top-dose-only effect; inactive means no such curve, though single readings can be large or run the other way; tested in A549 cells; further: nearly all actives have a fitted effect of over 30% in size; inactives centre near -10
VACV mCherry inh: inhibitors of vaccinia virus infection (mCherry reporter signal); Vaccinia virus mCherry reporter infection, fluorescence; about a quarter of the inactives have no number; Potency, µM (titrated, usually from 36.5 µM), inactives show at the top dose activity change, negative = inhibition, most hits filed as inhibitors; 0.63% of 310,000 active; AID 720579; active = well fitted inhibition curve with a large enough effect; inconclusive = small, poorly fitted or top-dose-only effect; inactive = no such curve, though single readings can be large or run the other way; tested in A549 cells; further: nearly all actives have a fitted effect of over 35% in size; inactives centre near -10
The depositor's hits bear a star; i = inactive; ? = inconclusive; nt = no result given; [ ] = remark or other dose. On the % scale 0 is the no-effect control and ±100 the full control effect; potency means the concentration at half of the fitted maximal effect. Outcome played no part in choosing rows; 0.82% or so of the library scored in one or more.

SMILES,Vaccinia Venus,VACV mCherry inh
Cc1[nH][nH]c(=O)c1C(c1ccc(N(C)C)c(Br)c1)c1c(C)[nH][nH]c1=O,7.2%,i
COc1ccc(C(=O)CC(=O)c2ccccc2O)cc1OC,-26.3%,-4.0%
Nc1c2c(nc3sc4c(c13)CCCC4)-c1ccccc1CC2,?,?
CCOC(=O)c1sc(NC(=O)c2cccc(S(=O)(=O)N3c4ccccc4CC3C)c2)cc1C (centres undefined),-22.2%,-5.4%
COc1ccc(C(=O)N/N=C(\C)c2ccc3c(c2)C2C=CCC2C(c2ccccc2)N3)cc1 (centres undefined),-18.8%,-13.5%
COCCN(Cc1cc2cc(C)ccc2nc1Cl)C(=O)Nc1ccccc1OC,-11.5%,i
COc1cc(C)ccc1S(=O)(=O)NC(=O)C1(C)CCN1C(=O)c1ccc(C(F)(F)F)nc1C (centres undefined),-4.1%,54.3%[activator]
O=C(NCCC1=CCCCC1)C1CCN(S(=O)(=O)c2ccc(Br)s2)CC1,?,?
CC(=NNC(=O)CCC(=O)Nc1ccccc1Cl)c1ccco1,2.5%,i
Cc1noc(C)c1S(=O)(=O)N1CCC(C(=O)N2CCN(c3ccccc3)CC2)CC1,-5.7%,-3.9%
O=C(CNC(=O)OCc1ccccc1)OC(c1ccccc1)c1ccccc1,-9.6%,-8.0%
CC(C)c1cc(NC(=O)CCl)on1,-22.3%,-9.9%
NC(=O)C(c1ccc(Cl)cc1)c1ccc(Sc2ccccc2)nn1 (centres undefined),-21.0%,-1.6%
CCc1nc2c(cnn2-c2ccc(Cl)cc2)c(=O)n1-c1ccc(OC)cc1,-16.2%,-19.5%
COC(=O)c1c(C(=O)OC)c(-c2ccc(C(C)(C)C)cc2)n2c1CS(=O)C2 (centres undefined),-6.3%,-9.2%
CC(C)COC(=O)c1ccc(NC(=O)C2C3C=CC(C3)C2C(=O)O)cc1 (centres undefined),?,nt
O=C(NCc1ccccn1)C1CN(S(=O)(=O)c2ccccc2)CCN1S(=O)(=O)c1ccccc1 (centres undefined),-3.4%,2.8%
Cc1ccc(-n2nnc(-c3cc4ccccc4nc3Cl)n2)cc1,-15.5%,-18.9%
CSc1ncccc1C(=O)NNc1cc(Cl)ccc1Cl,-20.3%,?
O=C(C1CCCN(Cc2ccccc2F)C1)N1CCCCC1 (centres undefined),-6.4%,-15.0%
O=C(COC(=O)c1ccccn1)NCCc1ccc(Cl)cc1,-5.3%,-1.2%
COc1ccc(-c2csc(C(C)(O)c3ccccc3)n2)cc1 (centres undefined),0.3%,17.7%
Cc1cc(/C=C2\SC(=S)N(Cc3ccco3)C2=O)c(C)n1-c1ccccc1,-7.4%,i
COc1cc(Cl)ccc1S(=O)(=O)n1nc(C)cc1C,1.6%,-12.9%
Cc1[nH]c2ccccc2c1C(=O)C(=O)NCCOc1ccccc1,-16.1%,i
O=C(CSc1nnc(-c2ccccc2F)o1)N1CCCC1,-12.3%,-5.8%
COc1ccc2oc(C(=O)OCC(=O)N3CCN(S(=O)(=O)c4ccccc4)CC3)c(C)c2c1,-21.5%,-35.1%
O=C(c1ccco1)N(Cc1ccco1)c1ccc(O)cc1,-1.3%,-10.0%
CC(C)NC(=O)[C@H](CSCc1ccccc1)N1Cc2ccccc2C1=O,-13.2%,i
O=[N+]([O-])c1cc(Cl)ccc1NCCNc1ncc(C(F)(F)F)cc1Cl,-10.8%,i
CN(C(=O)Nc1cccc(C(F)(F)F)c1)C1CCCCC1,-0.5%[7.34 µM],-0.4%[7.34 µM]
O=C1C=CC(=Nc2ccc3c(c2)Cc2ccccc2-3)O1,-15.4%,-15.6%
CCOC(=O)/C(=N/Nc1ccc(Cl)cc1)S(=O)(=O)c1ccc(Cl)cc1,-14.8%,-22.6%
COC(=O)C1=C(c2ccc(OC)c(OC)c2)C[C@@H]2CC[C@H]1N2C(=O)N1CCC(O)CC1,2.8%,-13.3%
O=C(CC(=O)N/N=C\c1ccccc1)NCCc1ccccc1,-5.5%,-0.3%
Cc1ccc(O)c(NC(=O)/C=C/C(=O)O)c1,-4.6%,i
Cc1ccc(S(=O)(=O)N(CC(=O)NC2CC2)c2ccc(C)c(Cl)c2)cc1,-18.4%,-1.6%
N#Cc1ccc(Oc2ccc(NC(=O)C3CC=CCC3C(=O)O)cc2)cc1 (centres undefined),-5.0%,-14.8%
Cn1c(CCN2CCCCC2)nc2cc(NC(=O)Nc3ccccc3)ccc21,-17.0%,-20.7%
CCn1cc(C(=O)N2CCN(c3ccccc3F)CC2)c(=O)c2cc(S(=O)(=O)N(C)C3CCCCC3)ccc21,-17.0%,-20.9%
CC1CC(C)CN(S(=O)(=O)CC23CCC(CC2=O)C3(C)C)C1 (centres undefined),-3.0%,-11.3%
COc1cc(C(=O)NCCNC(=O)C2CCCNC2=O)cc(OC)c1OC (centres undefined),-13.4%,i
O=C(N=C1SC2CS(=O)(=O)CC2N1c1ccccc1)c1ccccc1 (centres undefined),8.3%,-11.5%
O=C(O)c1cccc(-c2ccc(/C=N/Nc3nn[nH]n3)o2)c1,-12.8%,-9.1%
O=C(NCc1ccccc1)c1c(O)c2cccc3c2n(c1=O)CCC3,-12.4%,nt
CCOC(=O)C(C)n1cnc2c(nnn2-c2cccc(OC)c2)c1=O (centres undefined),-3.7%,-15.6%
Cn1c(CN2CCN(c3ccc(Cl)cc3)CC2)nc2ccccc21,-16.9%,?
Cc1nc2ccccc2c(=O)n1/N=C/c1ccccc1O,2.4%,-18.3%
COc1ccccc1N1CCN(CC(=O)Nc2c(C)n[nH]c2C)CC1,-8.4%,-17.7%
CC1Oc2ccccc2N(CC(=O)NCc2ccc3c(c2)OCO3)C1=O (centres undefined),0.1%,5.3%
COC(=O)C1=C(c2ccc(F)cc2OCc2ccccc2)C[C@@H]2CC[C@H]1N2C(=O)NCc1ccc(Cl)cc1,?,-14.0%
O=C(COC(=O)CCC(=O)c1ccc(F)cc1)NCc1ccccc1Cl,1.9%,-10.7%
Nc1nc(-c2ccc(F)cc2)cs1,-0.5%,-19.2%
O=C(NCc1cccnc1)C(=O)NCC(c1ccco1)N1CCN(c2ccccc2)CC1 (centres undefined),-11.4%,-9.2%
O=C(NNC(=O)C1CCCC1)c1cc([N+](=O)[O-])cc([N+](=O)[O-])c1,3.5%,-11.8%
COc1c(Cl)ccc(Cl)c1C(=O)NC(=O)Nc1nc(C)cc(C)n1,-14.3%,-12.7%

(next part)
SMILES,Vaccinia Venus,VACV mCherry inh
CN(Cc1ccccc1)C(=O)c1ccc(Nc2nc(CN)cs2)nc1,-3.3%,12.1%
O=C(CSc1nc2ccccc2[nH]1)N/N=C/c1ccncc1,16.0%,1.6%
Cn1cnnc1SCC(=O)Nc1ncc([N+](=O)[O-])s1,-8.3%,-16.5%
CCOc1ccc(CC(=O)NCc2ccc3c(c2)CCN3C(=O)c2ccc(F)cc2)cc1OCC,-11.5%,-11.8%
COc1ccc2c(c1)-c1nc(/N=C/c3c(O)ccc4ccccc34)sc1CC2,-18.2%,?
COc1ccc(CCC(=O)NCc2ccco2)cc1,-1.3%,-2.0%
CN(c1ccccc1C(=O)N1CCN(c2ccccc2F)CC1)S(=O)(=O)c1ccccc1,-15.7%,-6.4%
CCN(CC(=O)Nc1c(F)cccc1F)C(=O)CNC(=O)c1ccc(Br)o1,-3.7%,i
CCCc1cc(C(=O)N2CCCC(Nc3ccc(C)c(C)c3)C2)n(C)n1 (centres undefined),-11.5%,-14.0%
C/C(=N\OCC(=O)Nc1c(C)cc(C)cc1C)c1ccc2c(c1)OCCO2,-14.2%,-11.5%
Cc1nc2cc(NC(=O)N3CCC(c4ccccc4)C3)ccc2n1C (centres undefined),-10.5%,-16.6%
Cc1nc(SCC(=O)NC(C)(C#N)C2CC2)c2c(-c3cccs3)csc2n1 (centres undefined),-20.2%,i
Cc1ccc(C(=O)OCC(=O)NC2CC2)s1,6.7%,i
COc1ccc(N2CCN(C(=O)CNC(=O)c3ccc(Br)o3)CC2)cc1,-6.6%,-11.3%
COc1cccc(CNC(=O)CN(C)S(=O)(=O)c2ccc(Br)s2)c1,-10.9%,-13.8%
COCCNc1ccnc2c(Cl)cccc12,0.0%,-5.1%
O=[N+]([O-])c1ccc(-c2nc(NCC3CCCO3)c3ccccc3n2)cc1 (centres undefined),?,-23.7%
Cc1nn(-c2ccccc2)c(Cl)c1C(=O)N(C)CC(=O)Nc1cccc(F)c1,-6.4%,-12.4%
O=C(C1CCN(S(=O)(=O)c2cccc3nsnc23)CC1)N1CCc2ccccc21,-18.2%,?
CCc1ccc(CN(C)CC(=O)Nc2ccc3c(c2)CCC3)cc1,-16.4%,-5.5%
Cc1nn(CCc2nn[nH]n2)c2nc(C(F)(F)F)cc(C(F)(F)F)c12,-4.5%,nt
CCOC(=O)c1sc(NC(=O)c2c(C)nn(Cc3ccccc3)c2C)cc1C,?,?
COc1ccnc(N=CNOCc2ccc(C)cc2)c1C#N,5.5%,-12.2%
CCCCOC(=O)c1ccc(NC(=O)COC(=O)CSc2nc(C)cc(C)n2)cc1,-10.5%,-12.4%
CCCCN(C)Cc1c(O)ccc2c(-c3ccccc3)cc(=O)oc12,-17.2%,-28.4%
O=C(COC(=O)C1(c2ccccc2F)CCCC1)N1CCOCC1,-11.5%,nt
O=C(COC(=O)c1cc(=O)[nH]c2ccccc12)NC1CCCC1,-7.2%,i
CCOC(=O)C1=C(CS(=O)(=O)c2ccc(C)cc2)NC(=O)NC1c1cc(OC)c(OC)c(OC)c1 (centres undefined),-3.7%,-0.7%
C/C(CC(=O)Nc1cccc(Cl)c1Cl)=N\NC(=O)c1ccccc1Br,0.4%,i
CN1C(=O)CC(P(=O)(c2ccccc2)c2ccccc2)N(C)C1=O (centres undefined),-10.3%,-2.4%
COc1ccc2nc(C)cc(N3CCC(C(N)=O)CC3)c2c1,-5.2%,i
COC(=O)C1=C(N)Oc2cc(C)n(CCc3ccccc3)c(=O)c2C1c1cccnc1 (centres undefined),-24.6%,-28.6%

Next part (2 carried over from the part before).
SMILES,Vaccinia Venus,VACV mCherry inh
COc1ccc2nc(C)cc(N3CCC(C(N)=O)CC3)c2c1,-5.2%,i
COC(=O)C1=C(N)Oc2cc(C)n(CCc3ccccc3)c(=O)c2C1c1cccnc1 (centres undefined),-24.6%,-28.6%
COc1ccc(OC)c(NC(=O)C2(C)CCN2C(=O)C2(c3ccc(Cl)cc3)CCC2)c1 (centres undefined),-9.6%,i
CCOC(=O)C(NC(=O)c1cccc(Cl)c1)(OCc1ccccc1)C(F)(F)F (centres undefined),-13.6%,-7.6%
CCn1cnc2cc(NS(=O)(=O)c3ccc(OC)c(OC)c3)ccc21,-20.0%,-13.4%
CCn1cc(CN2CCCC(C(=O)Nc3cccc(-c4cc5ccccc5[nH]4)c3)C2)cn1 (centres undefined),-29.4%,?
COc1ccc(OC)c(Nc2cc(-c3ccccc3)nc(N)n2)c1,?,?
O=C(Nc1ccc(Cl)c(C(F)(F)F)c1)C(=O)N1CCCCC1,-14.3%,i
c1ccc(-c2nn3nnnc3c3ccccc23)cc1,6.8%,nt
CCc1cc(C(=O)Cc2ccccn2)c(O)cc1O,-9.3%,-7.1%
Cc1cc(C)cc(NC(=O)N2CCc3ccccc3C2)c1,-0.6%,i
COc1cccc(-c2nnc(-c3ccco3)o2)c1,-1.2%,-18.9%
CCOc1ccc(/C=C/C(=O)Nc2ccc(C(N)=O)cc2)cc1OC,-1.1%,0.5%
CCCCn1c(N)c(N(CC)C(=O)COc2ccc(C#N)cc2)c(=O)[nH]c1=O,2.7%,-15.7%
COc1ccccc1-c1cc(C(=O)NC(C)c2ccccc2)no1 (centres undefined),1.4%,-5.1%
CCOC(=O)c1ccc(NC(=O)C2CC3CCC2C3)cc1 (centres undefined),-4.1%[7.34 µM],-7.6%[7.34 µM]
COc1ccc(S(=O)(=O)Nc2cc(C)c(O)cc2C(C)C)cc1,-12.2%,-22.8%
CCCCn1c(N)c(N(CCOC)C(=O)CN2c3ccccc3CC2C)c(=O)[nH]c1=O (centres undefined),-1.4%,15.5%
Cc1ccc(OCc2cc(C(=O)N3CCc4sccc4C3)no2)cc1C,-16.2%,-12.6%
CC(=O)N1CCCc2cc(S(=O)(=O)N(C)CC(=O)Nc3cccc(C)c3C)ccc21,-21.7%,-13.9%
Cc1cccc(N2CCN(c3nc4nonc4nc3N3CCSCC3)CC2)n1,1.3%,-12.4%
CCOc1cccc2cc(-c3nnc(NCc4ccc5c(c4)OCO5)s3)c(=O)oc12,-4.2%,-12.6%
COc1cc(-c2ccc(N)c(OC)c2)ccc1N,-19.7%,-9.8%
COc1ccc(-n2c(/C=C3/C(=O)Nc4ccccc43)nc3ccccc3c2=O)cc1,-6.4%,i
CCC1CCCCN1Cc1c(O)ccc2c(=O)c(-c3ccccc3)coc12 (centres undefined),-11.3%,-0.6%

Assay outcomes (PubChem BioAssay)
